# High-throughput results from PubChem BioAssay.
# VACV Venus inh: qHTS for Stage-Specific Inhibitors of Vaccinia Orthopoxvirus: Venus Reporter Primary qHTS | Vaccinia virus Venus reporter expression, fluorescence | Potency, µM (titrated, usually from 36.5 µM), for inactives: at the top dose activity change, negative = inhibition, hits mostly inhibitors | 330,000 tested, 0.46% active | AID 720580, 2013; active means well fitted inhibition curve with a large enough effect; inconclusive means small, poorly fitted or top-dose-only effect; inactive means no such curve, though single readings can be large or run the other way; tested in A549 cells; also: nearly all actives have a fitted effect of over 30% in size; inactives centre near -10
# VACV mCherry inh: qHTS for Stage-Specific Inhibitors of Vaccinia Orthopoxvirus: mCherry Reporter Primary qHTS; 310,000 tested, 0.63% active; Vaccinia virus mCherry reporter infection, fluorescence; about a quarter of the inactives have no number; Potency, µM (top dose mostly 36.5 µM), for the others: top-dose activity change, negative = inhibition, most hits filed as inhibitors; active = well fitted inhibition curve with a large enough effect; inconclusive = small, poorly fitted or top-dose-only effect; inactive = no such curve, though single readings can be large or run the other way; tested in A549 cells; also: nearly all actives have a fitted effect of over 35% in size; inactives centre near -10
# Starred values were filed as active, the others as inactive; i = inactive; ? = inconclusive; nt = not tested or not shown; [ ] = remark or other dose. % is scaled to controls: 0 for no effect and ±100 for the full control effect; potency is read from the fitted curve at half-maximal effect.
molecule,VACV Venus inh,VACV mCherry inh
CCOc1ccc(CCN2C(=O)C3C4CCC(O4)C3C2=O)cc1OCC (stereo unspecified),-11%,i
COc1ccc2c(c1OC)C(=O)OC2CC(=O)c1ccc(N(C)C)cc1 (stereo unspecified),-12%,nt
COc1ccc(NC(=O)CSc2nc3ccsc3c(=O)n2CCCCCC(=O)O)cc1,-7%,-14%
CCc1nn(C(C)C(=O)NCc2ccc(Cl)cc2)c(=O)c2cc3occc3n12 (stereo unspecified),-10%,i
COc1ccc(S(=O)(=O)NCC(c2ccc(F)cc2)N2CCOCC2)cc1Br (stereo unspecified),-19%,-15%
CSc1nc2ccc(NC(=O)c3c(-c4ccccc4)noc3C)cc2s1,-14%,-14%
CCc1cc(C(=O)NNC(=S)NCc2ccccc2)cs1,-7%,-14%
CC(C)CNC(=O)c1cccc(NC(=O)C(C)C)c1,0%,i
Cc1cc(F)ccc1S(=O)(=O)N(CC(=O)N1CCOCC1)CC(=O)N1CCOCC1,-13%,i
Cc1ccc(NC(=O)NNC(=O)Cn2nc(-c3ccccc3)c(-c3ccccc3)c(C#N)c2=O)cc1,?,nt
CC1(C(=O)NS(=O)(=O)c2ccc(F)cc2F)CCN1C(=O)Cc1ccccc1 (stereo unspecified),3%,21%
CCCCCn1c(=O)c(C(=O)Nc2cc(C)ccn2)c(O)c2ccccc21,-5%,-4%
Cc1ccccc1C1NC(=S)NC2=C1C(=O)CC(C)(C)C2 (stereo unspecified),-12%,i
CCOc1ccc(/C=C/c2nc(C#N)c(NCc3ccc(OC)cc3)o2)cc1,?,?
COc1ccc(OCc2cc(C(=O)NCCN3CCCC(O)C3)no2)c(Cl)c1 (stereo unspecified),-11%,i
COc1ccc(S(=O)(=O)Nc2cc(C(=O)NC3CCCCCC3)ccc2N2CCOCC2)cc1,-21%,i
CN(CC(=O)Nc1ccccc1Cl)C(=O)c1cccc(S(=O)(=O)N2CCN(c3ccccc3)CC2)c1,?,-11%
Cc1ccc(NC(=O)C(C)N=C2NS(=O)(=O)c3ccccc32)cc1F (stereo unspecified),-12%,i
Cc1nc2nc(SCC(=O)C(C)(C)C)[nH]c2cc1Br,-20%,nt
c1ccc(N2CCN(Cc3nnnn3C3CCCCC3)CC2)cc1,-20%,-15%
CCOC(=O)c1scc(-c2ccc(C)cc2)c1S(=O)(=O)Nc1cc(Cl)ccc1OC,6%,-15%
COc1ccc(Cl)cc1Nc1ncnc2c1nc1n2CCCC1,-23%,-9%
O=C(c1cc(-c2ccncc2)nc2ccc(Br)cc12)N1CCN(Cc2ccc3c(c2)OCO3)CC1,17%,-9%
CCOc1ccc(NC(=O)CN(C)C(=O)c2cccnc2Sc2ccc(C)cc2C)cc1OCC,-18%,-26%
C/C=C/c1ccc(OCCOc2cc(C=O)ccc2OC)c(OC)c1,-13%,-24%
CC(=O)c1ccc(S(=O)(=O)N2CCN(C(=O)/C=C/c3ccc4ccccc4n3)CC2)cc1,-21%,?
Clc1ccc(-c2cc(C3CCNCC3)[nH]n2)cc1,-7%,-19%
CCc1cccc(NC(=O)COC(=O)c2c(C)nn(-c3ccccc3)c2C)c1,-16%,-11%
CCCC(=O)N1CCC1(C)C(=O)Nc1cc(OC)c(OC)c(OC)c1 (stereo unspecified),-1%,5%
COc1ccc(S(=O)(=O)N2CCC(C(N)=O)CC2)cc1,-4%,i
O=C(O)/C=C/c1ccc(S(=O)(=O)NCc2ccco2)cc1,-12%,i
CCOc1ccc(S(=O)(=O)N(CC(=O)NCCSCc2ccccc2)c2ccccc2)cc1,-6%,-10%
O=C(NC1CCCC1)C1C(c2ccc(C(F)(F)F)cc2)=Nc2ccccc2N1C(=O)c1ccccc1 (stereo unspecified),-16%,-28%
CCOc1ccccc1NC(=O)CSc1nc2cc(OC)c(OC)cc2c2nc(-c3ccccc3)nn12,-15%,-19%
N#Cc1ccccc1S(=O)(=O)N1CCN(S(=O)(=O)c2ccc(Br)c(C(=O)O)c2)CC1,-9%,-7%
CN(C(=O)c1cccc(NC(=O)Cc2ccc(NC(=O)C3CCCN(C(=O)c4ccccc4)C3)cc2)c1)C1CCC1 (stereo unspecified),-7%,-8%
COC(=O)c1ccccc1NC(=O)C1CCCN(C(=O)c2cnn(-c3ccc(F)cc3)c2-n2cccc2)C1 (stereo unspecified),-28%,?
COC(=O)c1scc(-c2ccc(C)cc2)c1S(=O)(=O)Nc1cc(Cl)c(OC)cc1OC,1%,-7%
Cc1ccccc1CSCC(=O)N/N=C/c1cccs1,?,?
CC(C)c1ccccc1NC(=O)COC(=O)c1cc([N+](=O)[O-])ccc1N1CCOCC1,2%,?
Cc1nc(N2CCN(C)CC2)c2c(C)c(C(=O)Nc3ccc(F)cc3)sc2n1,-8%,nt
COc1cc(/C=N/NC(=S)NCCN2CCOCC2)ccc1O,-6%,-12%
CCCCC(=Nc1ccccc1OC)C1=C(O)CC(c2ccccc2)CC1=O (stereo unspecified),9%,-8%
O=c1[nH]/c(=C/c2ccc3c(c2)OCO3)c(=O)[nH]/c1=C/c1ccc2c(c1)OCO2,-14%,-2%
S=c1[nH]ncn1/N=C/c1ccc(Br)cc1,-26%,-25%[1.46 µM]
O=C(c1ccc2nc(N3CCOCC3)sc2c1)N1CCC(Cc2ccccc2)CC1,-1%,11%
O=C(c1ccccc1-c1ccccc1)N1CCOCC1,-7%,i
c1ccc(CSc2nnc(-c3ccco3)n2Cc2ccccc2)cc1,-15%,nt

# Part of the list above, with values under each structure:
# Each structure is followed by: VACV Venus inh, VACV mCherry inh
Cc1cc(F)ccc1S(=O)(=O)N(CC(=O)N1CCOCC1)CC(=O)N1CCOCC1
 : -13%, i
Cc1ccc(NC(=O)NNC(=O)Cn2nc(-c3ccccc3)c(-c3ccccc3)c(C#N)c2=O)cc1
 : ?, nt

# (list continues)
molecule,VACV Venus inh,VACV mCherry inh
COCCNc1ncnc2c1ncn2[C@H]1CN(Cc2ccco2)C[C@@H](CO)O1,-3%,5%
COc1ccccc1Cn1c(=S)[nH]c2cc(C(=O)NCc3cccnc3)ccc2c1=O,-23%,-18%
CCOC(=O)c1cc(-c2ccc(OC)cc2)n(CCC(=O)Nc2cccc(C(C)=O)c2)c1C,-7%,-1%
COc1ccccc1NC(=O)C/C(C)=N/NC(=O)c1ccccn1,-10%,?
CCN(CC)CCN(Cc1cc2cc3c(cc2[nH]c1=O)OCO3)C(=S)NC,-9%,i
COc1ccc(CN2CCC3(CCC(CNC(=O)C4CCCO4)O3)CC2)c(C)c1C (stereo unspecified),45%[activator],-1%
COc1ccc(N2CCN(c3ncnc4c3cnn4-c3ccc(C)c(Cl)c3)CC2)cc1,-8%,-1%
COC(=O)C1=C(NC(=O)CCCCl)CCS1,-16%,0%
O=C(NC(Cc1ccccc1)C(=O)N1CCc2ccccc2C1)c1ccccc1 (stereo unspecified),-1%,-11%
COc1cc(OC)cc(-c2nnc(SCc3ccc(C(=O)O)cc3)o2)c1,-7%,-13%
CC(NC(=O)C1CC1)C(c1cccs1)N1CCN(c2ccccc2)CC1 (stereo unspecified),-2%,-11%
COc1ccc(OCCCC(=O)N(CCC2=CCCCC2)c2c(N)n(Cc3ccccc3)c(=O)[nH]c2=O)cc1,-5%,-11%
CCC(c1nnnn1-c1ccc2c(c1)OCCO2)N1CCN(c2ccc(C(F)(F)F)cc2[N+](=O)[O-])CC1 (stereo unspecified),-19%,-13%
CC1CC(C)CN(CCOc2ccc(Br)cc2)C1 (stereo unspecified),-11%,-13%
COc1cc(NC(=S)NC(=O)c2ccc(C(C)(C)C)cc2)ccc1NC(=O)c1cccs1,8%,?
COc1ccccc1NC(=O)N(C)C[C@@H]1OCc2cn(nn2)CCCC(=O)N([C@H](C)CO)C[C@H]1C,-9%,1%
CN1CCN(c2c(C#N)c(C(F)(F)F)nn2C)CC1,11%,-4%
CC(NC(=O)CNC(=O)C1CCCCC1)c1cccc(Cl)c1 (stereo unspecified),-10%,i
Cc1ccc(S(=O)(=O)Nc2ccc(Cl)cc2)cc1NC(=O)c1cc2c(s1)CCCC2,?,?
Nc1cc([N+](=O)[O-])ccc1N1C(=O)CCCC1=O,-11%,i
COc1cc(OC)c2nc(C)c3c(c2c1)N(c1ccc(O)cc1)CC3,?,?
CC1=C(C(=O)OC(C)C)C(c2cccnc2)n2ncnc2N1 (stereo unspecified),28µM*,28µM*
CC(=O)c1ccc(N=Nc2ccc(N(C)C)cc2)cc1,-16%,?
Oc1ccc(C=NNc2nc3ccccc3s2)c(O)c1,?,5µM*

# Arranged by molar mass (lowest first): part of the list above
molecule,VACV Venus inh,VACV mCherry inh
CC(=O)c1ccc(N=Nc2ccc(N(C)C)cc2)cc1,-16%,?
CN1CCN(c2c(C#N)c(C(F)(F)F)nn2C)CC1,11%,-4%
CC1CC(C)CN(CCOc2ccc(Br)cc2)C1 (stereo unspecified),-11%,-13%
Cc1ccc(S(=O)(=O)Nc2ccc(Cl)cc2)cc1NC(=O)c1cc2c(s1)CCCC2,?,?
CCC(c1nnnn1-c1ccc2c(c1)OCCO2)N1CCN(c2ccc(C(F)(F)F)cc2[N+](=O)[O-])CC1 (stereo unspecified),-19%,-13%

# Carrying on.
molecule,VACV Venus inh,VACV mCherry inh
CCOC(=O)C(C)Oc1cccc2c(=O)n(CC(=O)NCc3ccccc3)ccc12 (stereo unspecified),-24%,-14%
COc1ccc(-c2nnc(SCC(=O)N3CCOCC3)n2C)cc1OC,-6%,-2%
CC(C)CC(N=Cc1c(O)c2ccccc2oc1=O)C(=O)O (stereo unspecified),-8%,-18%
Cc1ccc(CSc2nc3cccnc3n2Cc2ccc(C(=O)NC3CC3)cc2)cc1,-21%,-13%
Cc1ncc(C[n+]2ccc(C)c(C)c2)c(N)n1,4%,i
O=C1c2ccccc2S(=O)(=O)c2cc(N3CCC4(CC3)OCCO4)ccc21,-22%,i
N#Cc1nc(-c2ccc(Cl)cc2)oc1NCc1ccco1,-17%,-14%
COc1cc(S(=O)(=O)N2CCC(c3nc4ccccc4s3)CC2)ccc1S(=O)(=O)N1CC(C)CC(C)C1 (stereo unspecified),-10%,i
COc1cccc(C(=O)Nc2c(C)nn(-c3ccccc3)c2C)c1,-7%,4%
O=C(NCC(O)c1ccccc1)c1ccc(Cl)c(S(=O)(=O)N2CCCC2)c1 (stereo unspecified),-15%,-6%
Cc1ccc(C)c(CNC(=O)c2ccc3c(c2)nc2n3CCOC2)c1,3%,-7%
Oc1ccc2ccccc2c1N=Nc1nccs1,-8%,?
O=C(COc1ccc(-n2cnnn2)cc1)Nc1cc(Cl)cc(Cl)c1,-24%,-7%
CCc1ccc(NC(=O)CC2C(=O)N(c3ccccc3)C(=O)N2C(C)C)cc1 (stereo unspecified),-11%,-6%
Cc1cc(/C=N/NC(N)=O)c(C)c(CO)c1,-6%,-5%
CCOc1ccc(C(=O)Nc2ccc(CN3CCOCC3)cc2)cc1Br,-19%,-15%
Cc1ccc(/C(N)=N/OC(=O)c2ccc(C)cc2Cl)cc1,-10%,-6%
COc1cc(CN2C[C@@H](CO)O[C@@H](n3cnc4c(NC(C)C)ncnc43)C2)cc(OC)c1OC,-6%,-3%
Cc1ccc(C(=O)NNC(=O)C2CC2)cc1Br,-10%,-1%
Cc1cccc(OS(=O)(=O)NC(=O)OCC2CCCN3CCCCC23)c1 (stereo unspecified),-11%,-9%
CCCCN(CC)C(=O)Cn1nc(C)c2c(C)n(-c3ccccc3)nc2c1=O,-7%,-9%
Cc1cccc(CNC(=O)c2ccc(Cn3c(SCc4cccc(F)c4)nc4cccnc43)cc2)c1,-17%,-9%
CC(C)CNC(=S)NNC(=O)c1csc2ccccc12,-10%,-16%
CCN(CC)S(=O)(=O)c1ccc(N2CCOCC2)c(NS(=O)(=O)c2cc(C(C)(C)C)ccc2C)c1,?,-8%
COc1ccc(S(=O)(=O)N(CC(=O)Nc2cccc(C)c2)c2ccc(C)cc2)cc1OC,-2%,-10%
CCOC(=O)c1sc(=S)n(-c2ccc(C)cc2)c1N,-11%,i
CC(NC(=O)c1ccc(=O)oc1)c1ccccc1 (stereo unspecified),-11%,nt
CCn1c(Cc2ccccc2)nnc1SCC(=O)Nc1ccccc1O,-18%,-12%
Cc1ccc(C2CC(=O)n3nc(-c4ccc(Cl)cc4)nc3S2)cc1 (stereo unspecified),-6%,-1%
CCOC(=O)c1ccc(NC(=O)C2=C(C)C(=O)OC23CCCCCC3)cc1,-15%,-17%
CCCCc1cc(=O)oc2cc(C)cc(OCC(=O)N3C[C@H]4C[C@@H](C3)c3cccc(=O)n3C4)c12,-13%,-15%
COc1cc(C2c3cc4c(cc3CC3COC(=O)C32)OCO4)cc(OC)c1OC (stereo unspecified),?,-21%
CCc1nc2c(c(SC)nn2-c2ccccc2)c(N)c1C(=O)OC,-8%,i
COc1ccc(N2CCN(CCOc3ccc4c(C)cc(=O)oc4c3)CC2)cc1,2%,i
Nc1nc(Nc2ccc(Cl)cc2)nc(NCCO)c1[N+](=O)[O-],-12%,i
Cc1ccc(S(=O)(=O)N2CCOCC2)cc1NC(=O)COC(=O)c1cnc(Cl)c(Cl)c1,-4%,-19%
